Compound activity: PubChem, Emory University Molecular Libraries Screening Center
Measles inh: inhibitors of measles virus growth in cells, primary screen, measles RdRp inhibitor project, cell-based, single point, HTS; AID 745, 2007; actives 0.1% (n = 33,000); z-score (concentration not given with the values); infected Vero cells, GFP fluorescence, 64 h; hits give low values;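 active = z-score under -3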;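 note: score is relative to mean and SD of the compound wells of a plate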
Numbers without * were called inactive. Some of the compounds tested; the hit share may differ from the screen's.

Measles inh | Compound
0.3 | CCOC(=O)c1cnc2c(OC)cccc2c1Nc1ccc(Br)cc1C
-0.71 | CCSc1nnc(NC(=O)COc2ccc(Cl)cc2C)s1
-1.8 | COCCNCC(O)Cn1c2ccccc2c2ccccc21 (configuration not stated)
0.08 | CC(C)c1ccccc1NC(=O)c1ccccc1
0.63 | CCC1CCCCN1C(=O)c1ccc(N2CC3CC(C2)c2cccc(=O)n2C3)c(NC(=O)c2ccncc2)c1 (configuration not stated)
-0.24 | Cc1ccccc1N1C(=S)NC2CC1(C)Oc1ccccc12 (configuration not stated)
-0.38 | COc1cccc(-n2c(=O)[nH]c3ccsc3c2=O)c1
0.31 | CCCOC(=O)Cc1n[nH]c(=O)[nH]c1=O
-1.2 | CC(C)C(=O)N1c2ccccc2NC2=C(C(=O)CC(C)(C)C2)C1c1ccc([N+](=O)[O-])cc1 (configuration not stated)
0.2 | c1ccc(-c2cn(-c3ccccc3)c3ncnc(N4CCCC4)c23)cc1
2.6 | CC(=O)Nc1nnc(SCc2ccc(F)cc2)s1
-0.09 | O=C(Cc1ccccc1[N+](=O)[O-])NCc1ccco1
-0.77 | Cc1ccsc1C1Nc2ccccc2NC2=C1C(=O)CC(C)(C)C2 (configuration not stated)
-0.51 | O=C(CSc1nnc(-c2cccnc2)n1Cc1ccccc1)c1ccc(Br)cc1
0.52 | COc1cc(-n2c(C)nc3cc(C(=O)NC4CCCC(C)C4C)ccc32)cc(OC)c1OC (configuration not stated)
-0.89 | O=C(NCCOc1ccccc1Cl)c1ccc2ccccc2n1
-0.64 | O=C(Nc1ccc2c(c1)CCC2)c1ccc2c(=O)n(C3CCCCC3)c(=S)[nH]c2c1
-0.81 | CCOc1ccc(N=C2NC(=O)C(CC(=O)Nc3ccc(Br)cc3)S2)cc1 (configuration not stated)
0.47 | O=C(Nc1ccc(-c2nc3ccccc3[nH]2)cc1)c1ccc(C(=O)c2ccccc2)cc1
0.25 | COC(=O)C1=C(C)NC2=C(C(=O)CCC2)C1c1cc(Br)c(O)c(OC)c1 (configuration not stated)
-0.09 | COC(=O)Oc1ccc2c(=O)c(-c3ccccc3OC)coc2c1
0.3 | Cc1ccc(C(=O)Nc2c3c(nn2C(C)(C)C)CS(=O)(=O)C3)cc1
-1.1 | CCCCNC(=O)c1ccc(N2CC3CC(C2)c2cccc(=O)n2C3)c(NS(=O)(=O)c2ccc3c(c2)OCCO3)c1 (configuration not stated)
-1.1 | CC1CCc2c(sc(NC(=O)c3cccc(S(=O)(=O)NC4CCCCC4)c3)c2C#N)C1 (configuration not stated)
-1.6 | O=C(Nc1cccc(C(F)(F)F)c1)c1ccc(NC(=O)c2cccc(Br)c2)cc1

An excerpt from above in order of their number in Measles inh, rising.
Measles inh | Compound
-0.81 | CCOc1ccc(N=C2NC(=O)C(CC(=O)Nc3ccc(Br)cc3)S2)cc1 (configuration not stated)
-0.09 | COC(=O)Oc1ccc2c(=O)c(-c3ccccc3OC)coc2c1
0.25 | COC(=O)C1=C(C)NC2=C(C(=O)CCC2)C1c1cc(Br)c(O)c(OC)c1 (configuration not stated)
0.3 | CCOC(=O)c1cnc2c(OC)cccc2c1Nc1ccc(Br)cc1C
0.52 | COc1cc(-n2c(C)nc3cc(C(=O)NC4CCCC(C)C4C)ccc32)cc(OC)c1OC (configuration not stated)

The listing continues.
Measles inh | Compound
-0.32 | Cc1c(C(=O)N2CCN(c3ccccc3)CC2)sc2ncn(CC(=O)N3CCCCC3)c(=O)c12
-0.66 | O=C(CCCn1c(=O)[nH]c2ccsc2c1=O)N1CCc2ccccc2C1
-0.13 | COc1ccc(C(=O)NCCc2cc3c(OC)ccc(OC)c3[nH]c2=O)cc1
-0.85 | O=C(Nc1sc2c(c1C(=O)N1CCCCC1)CCCCC2)c1ccccc1F
-0.29 | CCOc1ccc(N(C)S(=O)(=O)c2ccc3[nH]cc(C(=O)NCc4cccnc4)c(=O)c3c2)cc1
-0.37 | COC(=O)c1ccc2c(c1)C=CC1(O2)c2ccccc2-c2ccccc2N1C (configuration not stated)
-0.03 | CCCCNCC(=O)c1c(N)n(C)c(=O)n(C)c1=O
0.07 | O=C(OCCN1CCN(C2=NS(=O)(=O)c3ccccc32)CC1)c1cccc2ccccc12
-0.55 | O=C(CSc1nc2c([nH]c3ccccc32)c(=O)n1-c1ccccc1)c1ccccc1
0.77 | O=[N+]([O-])c1ccc(C2Nc3ccc(F)cc3C3C=CCC32)cc1 (configuration not stated)
-0.39 | COc1ccccc1C1Oc2ccccc2C2=C1C(c1ccc(C)cc1)n1ncnc1N2 (configuration not stated)
0.38 | CC(=O)Nc1nc2c(c(-c3ccccc3)c1C#N)CCCCC2
1 | O=C(Cn1c2ccccc2c(=O)c2ccccc21)N1CCN(c2ccc([N+](=O)[O-])cc2)CC1
-0.07 | COc1cccc(C(=O)Nc2nc(-c3ccc(Cl)cc3)cs2)c1
-0.24 | Cc1cc(C)c2oc(-c3cc(NC(=O)CC(C)C)ccc3Cl)nc2c1
-0.96 | Cc1ccc(C)c(CSC2=NCCN2C(=O)c2ccc(S(=O)(=O)N3CCCC3)cc2)c1
-0.35 | COc1cccc(C2CC(=O)C3=C(C2)NC(C)=C(C(=O)OCCOC(C)C)C3c2coc3ccc(C)cc3c2=O)c1 (configuration not stated)
-0.58 | Cc1c(Cc2ccccc2)c(=O)oc2c(C)c(OCC(N)=O)ccc12
-0.12 | CCOC(=O)COc1nc(C)c(Br)c(COC)c1C#N
-1.6 | O=C1CN(C(=O)c2ccc(N3CCCCC3)c([N+](=O)[O-])c2)c2ccccc2N1
-0.21 | O=c1oc2ccc([N+](=O)[O-])cc2cc1-c1nc(-c2ccccc2)cs1
-1.7 | CCCOc1ccc(C(Nc2ccccn2)c2ccc3cccnc3c2O)cc1 (configuration not stated)
0.94 | CC1=C(C(N)=O)C(c2ccc3c(c2)OCO3)NC(=S)N1 (configuration not stated)
-2.2 | O=C(NCC1CCCO1)c1cnn2c(C(F)(F)F)cc(-c3ccccc3)nc12 (configuration not stated)
-0.75 | CC1=Cc2n[nH]c(C)c2C(c2ccccc2)C1 (configuration not stated)

An excerpt from above in order of formula weight, low to high:
Measles inh | Compound
0.77 | O=[N+]([O-])c1ccc(C2Nc3ccc(F)cc3C3C=CCC32)cc1 (configuration not stated)
-0.12 | CCOC(=O)COc1nc(C)c(Br)c(COC)c1C#N
-0.85 | O=C(Nc1sc2c(c1C(=O)N1CCCCC1)CCCCC2)c1ccccc1F

Gathered by group, the entries above with fluorine (5)
Measles inh | Compound
2.6 | CC(=O)Nc1nnc(SCc2ccc(F)cc2)s1
-1.6 | O=C(Nc1cccc(C(F)(F)F)c1)c1ccc(NC(=O)c2cccc(Br)c2)cc1
-0.85 | O=C(Nc1sc2c(c1C(=O)N1CCCCC1)CCCCC2)c1ccccc1F
0.77 | O=[N+]([O-])c1ccc(C2Nc3ccc(F)cc3C3C=CCC32)cc1 (configuration not stated)
-2.2 | O=C(NCC1CCCO1)c1cnn2c(C(F)(F)F)cc(-c3ccccc3)nc12 (configuration not stated)

The list continues.
Measles inh | Compound
0.65 | CCN(C(=O)c1cc2c(=O)oc3ccccc3c2s1)c1ccc(C)c(C)c1
-0.73 | CCCCCSc1nc2c(c(=O)[nH]1)C(c1ccccc1Cl)C1=C(CC(C)(C)CC1=O)N2 (configuration not stated)
-1.3 | Cc1cccc(Oc2cc(NC(=O)c3cccc(Cl)c3)cc([N+](=O)[O-])c2)c1
0.16 | Cc1cc(NC(=O)CSc2nc3c(sc4ccccc43)c(=O)n2Cc2ccc3c(c2)OCO3)n[nH]1
-0.44 | CCOc1ccc(NC(=O)C2c3cc(OC)c(OC)cc3C(=O)N(C)C2c2ccccc2F)cc1 (configuration not stated)
0.08 | Cc1ccc2c(c1)sc(=NC(=O)c1ccc(S(=O)(=O)N3CCc4ccccc43)cc1)n2C
-0.13 | O=C(Cc1c(C(=O)O)[nH]c2ccccc12)NCc1ccc(F)cc1
-1 | CCc1c(C)[nH]n2cnnc2c1=O
-0.57 | O=C(Nc1ccc(Cl)cc1)Nc1nnc(CSCc2ccccc2)s1
2 | CCN(CC)CCCNc1ncnc2sc3c(c12)CC(C)CC3 (configuration not stated)
-0.1 | CC1SC2(OC1=O)C1CC3CC(C1)CC2C3 (configuration not stated)
-1.4 | CCCCN(C)Cc1c(O)ccc2c(=O)c(Oc3ccccc3Br)c(C(F)(F)F)oc12
-0.8 | CC(C)COC(=O)c1ccc(N2C(=O)c3cccc([N+](=O)[O-])c3C2=O)cc1
2.1 | O=C(c1ccc(-c2ccc(Br)cc2)o1)N1CCOCC1
0.95 | CCC1Sc2ccccc2N(CC(=O)NCc2ccc(F)cc2)C1=O (configuration not stated)
7.5 | CCn1c(SCC(=O)Nc2cccc3ccccc23)nc2c(c1=O)SC(C)C2 (configuration not stated)
0.41 | CC(C)(C)c1cc(C(c2ccccn2)N2CCCC2)cc(C(C)(C)C)c1O (configuration not stated)
0.28 | O=C(CCc1ccccc1)Nc1ccc(Cl)cn1
-0.92 | COc1ccc(C2C(C(=O)NC3CCCC(C)C3C)c3ccccc3C(=O)N2c2ccc(OC)cc2)cc1 (configuration not stated)
-0.86 | O=[N+]([O-])c1ccc(C2CC(c3ccc(Br)cc3)=Nc3ccccc3N2)cc1 (configuration not stated)
-0.35 | O=C(CCCn1c(=S)[nH]c2cc3c(cc2c1=O)OCO3)NCCN1CCCC1
0.46 | O=C1CCCC(=O)N1c1ccc(N2CCN(C(c3ccccc3)c3ccc(Cl)cc3)CC2)c([N+](=O)[O-])c1 (configuration not stated)
1.1 | Cc1sc2ncn(CC(=O)NCCN(C)C)c(=O)c2c1S(=O)(=O)N1CC(C)CC(C)C1 (configuration not stated)
0.29 | CCCCN(C)Cc1c(C)[nH]c2ccc(C)cc2c1=O
-0.43 | CC(C(=O)Nc1ccccn1)N1C(=O)C2C3C=CC(C3)C2C1=O (configuration not stated)
-1.2 | CCc1ccc2[nH]c(C)c(CN3CCOCC3)c(=O)c2c1
-0.43 | O=S(=O)(c1ccc(C2CCCCC2)cc1)N1CCN(c2ccc(F)cc2)CC1
-0.04 | S=c1[nH]c(-c2ccc(Cl)cc2)cn1CCc1ccccc1
-0.39 | CCOC(=O)c1c(NC(=O)c2noc3c2CC(C(C)(C)C)CC3)sc(C)c1C (configuration not stated)
-0.15 | Cc1ccc(C2=NN(C(=O)CCC(=O)O)C(c3cc4cccc(C)c4nc3Cl)C2)cc1 (configuration not stated)
0.94 | Cc1[nH]nc(SCC(=O)Nc2cccc(Cl)c2C)c1[N+](=O)[O-]
0.06 | COc1ccc(N=C2NC(=O)C(CC(=O)Nc3ccc(Br)cc3)S2)cc1 (configuration not stated)
-0.89 | COC(=O)c1ccc2c(=O)n3c(nc2c1)SC1CS(=O)(=O)CC13 (configuration not stated)
-0.29 | CC(=O)N1CCc2cc(S(=O)(=O)NC(CC(C)C)C(=O)O)ccc21 (configuration not stated)
-0.07 | CCOC(=O)CNC(=O)c1cc2cc3cc(OC)ccc3nc2s1
0.07 | COC(=O)C1=C(NC(=O)c2ccc(S(=O)(=O)N3CCOCC3)cc2)CCS1
-0.52 | CN(C)S(=O)(=O)c1ccc(C(=O)Nc2nnc(-c3ccc(F)cc3)o2)cc1
0.84 | COc1cc2c(cc1OC)C(C(=O)N(C)Cc1ccccc1)C1c3ccccc3CCN1C2=O (configuration not stated)
0.89 | COC(=O)c1ccc(Nc2nc3c(s2)CCc2ccccc2-3)cc1
7.3 | CCN(CC)c1ccc(C=C2N=C(SC)SC2=O)cc1
1.2 | O=C(NCCn1cc(SCc2cccc(F)c2)c2ccccc21)c1ccc(F)cc1
0.32 | O=C1c2ccccc2-c2cc(Cl)nc3ccc(Nc4ccccc4)c1c23
0.38 | CCOc1ccccc1NC(=O)c1c(NC(=O)c2ccccc2Cl)sc2c1CCCC2
-0.58 | O=S(=O)(c1cccc2nonc12)N1CCCc2ccccc21
1.1 | COc1cccc(C2NN(C(=O)c3cccc(Br)c3)C3C(=O)N(c4ccccc4Cl)C(=O)C23)c1OC (configuration not stated)
-1 | CCc1ccc(-n2nc3ccc(NC(=O)c4ccc(OC(C)C)cc4)cc3n2)cc1
0.34 | O=C(NCCCN1CCN(c2ccccc2F)CC1)C1CCC(=O)N1C1CCCCC1 (configuration not stated)
2.1 | CCCC(=O)NC(Nc1ccc(S(=O)(=O)Nc2cc(C)on2)cc1)(C(F)(F)F)C(F)(F)F
-0.29 | COc1cc2c(c(OC)c1OC)C(c1ccccc1Br)CC(=O)N2 (configuration not stated)
-0.24 | Cc1cc(C)nc(SC2c3cccc4cccc(c34)C2NS(=O)(=O)c2ccccc2)n1 (configuration not stated)

Later entries:
Measles inh | Compound
-0.75 | CCC(C)(C(=O)NC1CCCCC1)N(CC1CCCO1)C(=O)c1ccccn1 (configuration not stated)
1.2 | COc1ccc(CCNC(=O)C2CCC(Cn3c(=O)[nH]c4ccccc4c3=O)CC2)cc1OC (configuration not stated)
-0.77 | COc1ccc(CCNC(=O)c2cc3nc(-c4ccccc4)cc(C(F)(F)F)n3n2)cc1OC
0.2 | COC(=O)c1cc(-c2ccc(F)cc2)n(-c2ccccc2)n1
1.6 | O=C(COc1ccc(Br)cc1)Nc1cccnc1
-0.36 | Cc1cccc(Nc2cc(C(=O)NCc3ccc4c(c3)OCO4)c3ccccc3n2)c1C
0.17 | Cc1ccc(C)c(-c2nc3ccc(N)cc3[nH]2)c1
-0.65 | Cc1ccc(NC(=O)Cn2cnc3sc(C(=O)Nc4cccc(C(F)(F)F)c4)c(C)c3c2=O)cc1Cl
-0.82 | CCCCOC(=O)C1=C(C)Nc2nnnn2C1c1ccccc1C (configuration not stated)
4.5 | CCCCOc1ccc(-c2nnc3n2N=C(c2ccc(Br)s2)CS3)cc1
-0.42 | CC(C)c1ccc(NS(=O)(=O)c2ccc3nc(-c4ccccc4)[nH]c3c2)cc1
0.89 | Cc1[nH]c2ccccc2c1C(c1ccccn1)N1CCN(c2ccccc2F)CC1 (configuration not stated)
-0.83 | CC(=O)c1cc2c(N)c(C(=O)Nc3cccc([N+](=O)[O-])c3)sc2nc1C
-0.02 | Cc1ccc(-c2cc(O)cc3sc(=O)oc23)cc1Cl
2 | COc1ccc2nc(NC(=O)c3cccnc3)sc2c1
0.29 | CC(C)OCCCNC(=O)CN1C(=O)COc2ccccc21
-0.1 | Cn1c(=O)c(=O)n(C)c2cc(S(=O)(=O)N3CCCc4ccccc43)ccc21
1.4 | O=C(c1ccc(Cl)cc1)c1cc([N+](=O)[O-])ccc1N1CCCCCC1
